gsp agonist = activates gsp, the McCune-Albright syndrome mutation. gsp mutant cells, cAMP HTRF, 30 min; control for the full effect not named in the record. Potency, µM (series often up to 76.9 µM), for the others: at the highest dose activation (cAMP increase), actives largely listed as activators. hit rate 0.13% among 340,000. AID 624287; active = well fitted activation curve with a large enough effect; inconclusive = small, poorly fitted or top-dose-only effect, or another doubt; inactive = no such curve, though single readings can be large or run the other way; cell line not stated here;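 note: phosphodiesterase inhibitor Ro 20-1724 added with compounds to block cAMP breakdown; potency is the fitted concentration of half-maximal effect; nearly all actives have a fitted effect of over 60% in size; about a fifth of the inactives were tested at one dose only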
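Cells stably selected in G418 were plated at 2000/well, grown 16-24 hr, then given compounds in DMSO with the PDE inhibitor […] (300 uM solution added) for 30 min at 37C; cAMP was read by HTRF.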
gsp antag = antagonists of gsp mutant (McCune-Albright syndrome) | gsp-mutant cells, cAMP HTRF, 30 min; control for the full effect not named in the record | hit rate 0.4% among 340,000 | Potency, µM (doses to about 76.9 µM), inactives show top-dose activity change, negative = inhibition, actives largely listed as inhibitors; active = falling curve of any shape with a large fitted effect; inconclusive = falling curve, mostly with a smaller effect; inactive = flat or rising curve; cell line not stated here;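 note: intracellular cAMP measured with PDE inhibitor Ro 20-1724 present during compound exposure; potency is the fitted concentration of half-maximal effect; % is set by controls: 0 for no effect and ±100 for the full control effect; nearly all actives have a fitted effect of over 65% in size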
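G418-selected cells were plated in DMEM/10% FBS for 16-24 h at 37C, then treated with compounds plus the PDE inhibitor […] (300 uM solution added) for 30 min at 37C. Intracellular cAMP was measured by HTRF after 30 min lysis at room temperature.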
TRPV1 potentiator = potentiators of human vanilloid receptor 1 (TRPV1); potentiation, % at 8.33 µM; Q8NER1; TRPV1-expressing cells, Fluo-8 calcium influx, capsaicin EC20 potentiation; host cell line not named in the record; control for the full effect not named in the record; hit rate 0.02% among 320,000; AID 540277; active means potentiation above 80%; inconclusive means 30% to 80%; inactive means below 30%; note: 0% is about no effect
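TRPV1-expressing cells were cultured overnight at 35.5C and loaded with Fluo-8 calcium dye for 40 to 90 min at room temperature. After a 10 s baseline, compound was added and calcium influx was read kinetically for 3 min (ex 480/em 520 nm).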
ClpP mod = qHTS Assay for Activators of ClpP; purified B. subtilis ClpP, FRET peptide cleavage, 20 min; Potency, µM (titrated, usually from 57.5 µM), inactives show top-dose activity change, negative = active; hit rate 1.9% among 340,000; AID 651965, 2013; active = well fitted falling curve with a large enough effect; inconclusive = small, poorly fitted or top-dose-only effect; inactive = no such curve, though single readings can be large or run the other way; note: potency is the fitted concentration of half-maximal effect; the source files actives as falling curves though it sought activators and does not explain the sign; nearly all actives have a fitted effect of over 65% in size; many hits overshoot -100%
Target sequence (P80244 whole entry, looked up): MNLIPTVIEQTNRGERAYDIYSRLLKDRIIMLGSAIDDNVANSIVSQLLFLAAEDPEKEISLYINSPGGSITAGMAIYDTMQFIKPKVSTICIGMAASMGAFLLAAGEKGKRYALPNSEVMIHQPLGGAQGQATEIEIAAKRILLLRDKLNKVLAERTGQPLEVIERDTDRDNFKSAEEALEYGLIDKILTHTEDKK
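Purified B. subtilis ClpP, 10 microg/mL final in Tris/HCl pH8 with KCl, BSA, glycerol and Tween-20, cleaved an Abz/nitrotyrosine-quenched decapeptide. Fluorescence (ex 320, em 430) was read at 0 and 20 min at room temperature. Delta was normalized to 5.8 microM ADEP and DMSO/no-enzyme controls.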
Menin-MLL FL inh = menin-MLL binding inhibition, fluorescein peptide; FP activity change, % at 61.4 µM; 290,000 tested, under 10 active; AID 1766; Fluorescence polarization, fluorescein-MLL peptide displacement from menin; inconclusive = falling polarisation curve, or a change in total fluorescence; inactive = total fluorescence flat and polarisation flat or rising; no compound was filed as active; the % refers to the polarisation; negative = inhibition;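 note: % of control where 0% means no effect; inhibitors lower the polarisation; unlabelled MLL peptide was the positive control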
D2 potentiator = potentiates the human D2 dopamine receptor allosterically. P14416. DiscoveRx D2 beta-arrestin cells, luminescence, 90 min; 100% = 57 uM dopamine signal. potentiation, % (concentration not given with the values). hit rate 0.23% among 360,000. AID 624464; active = potentiation of 50% or more; inconclusive = 30% to 50%; inactive = 30% or less;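 note: compound concentration not given in the record; tested on top of an EC20 dose of dopamine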
Target sequence (P14416 whole entry, looked up): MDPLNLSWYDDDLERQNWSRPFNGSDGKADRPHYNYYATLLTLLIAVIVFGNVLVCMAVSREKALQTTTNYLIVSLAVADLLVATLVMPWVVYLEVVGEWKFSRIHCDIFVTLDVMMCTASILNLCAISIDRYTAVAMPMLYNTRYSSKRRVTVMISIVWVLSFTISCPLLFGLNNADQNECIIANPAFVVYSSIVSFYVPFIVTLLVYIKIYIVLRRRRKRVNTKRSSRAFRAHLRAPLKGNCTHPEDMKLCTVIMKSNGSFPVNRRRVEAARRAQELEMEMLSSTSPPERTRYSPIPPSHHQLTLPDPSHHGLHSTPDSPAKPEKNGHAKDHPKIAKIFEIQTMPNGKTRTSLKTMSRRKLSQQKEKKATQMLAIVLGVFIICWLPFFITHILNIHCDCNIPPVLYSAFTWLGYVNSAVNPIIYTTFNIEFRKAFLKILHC
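PathHunter beta-arrestin assay in DiscoveRx D2 cells. Compounds were added with an EC20 of dopamine (50 nM final) for 90 min at 37 deg C. Luminescence was read 1 h after detection reagent, with 57 uM dopamine as the EC100 control.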
Sfp PPTase inh = Sfp phosphopantetheinyl transferase inhibition. Q9F4F7. Biochemical Sfp PPTase activity, qHTS. Potency, µM, for the others: max response, negative = inhibition, actives largely listed as inhibitors. hit rate 3.5% among 310,000. AID 1490; active = well fitted inhibition curve with a large enough effect; inconclusive = small, poorly fitted or top-dose-only effect, or another doubt; inactive = no such curve, though single readings can be large or run the other way;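 note: the enzyme is Sfp with the accession as filed and its product quenches rhodamine fluorescence; potency is the fitted concentration of half-maximal effect; 0% = enzyme reaction without inhibitor and -100% = no enzyme wells; top concentration of the series not given in the record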
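With Hepes-Na pH 7.6 buffer containing 10 mM MgCl2, Sfp (15 nM) modified BHQ-2-YbbR (12.5 uM) using rhodamine-CoA (5 uM). Two reads 30 minutes apart at 525/598 nm yielded each well's rate.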
Starred values were filed as active, the others as inactive; ? = inconclusive; · = no result given; & = joins results of further samples; [ ] = remark or other dose.

SMILES	gsp agonist	gsp antag	TRPV1 potentiator	ClpP mod	Menin-MLL FL inh	D2 potentiator	Sfp PPTase inh
COc1cccc(OC)c1C(=O)NC(=S)Nc1cccc(NC(=O)c2ccco2)c1	12%[15.4 µM]	-4%	-1	·	-0.8	3	0%
Cc1cc([N+](=O)[O-])c(C)cc1-c1ccc(/C=N/NC(=O)Cn2nnnc2N)o1	8%[15.4 µM]	2%	5	·	2.5	-10	20%
COc1ccc2c(c1OC)C(=O)N(c1cccc(NC(C)=O)c1)C2	?	-9%	11	·	6.2	3	5%
COc1ccc(C(=O)C2CCCN(C(=O)c3cc(C(C)C)no3)C2)cc1F (stereo unspecified)	-14%	-14%	-13	-1.4%	-1.6	-5	5%
CC1(C)OC(=O)C=C[C@]2(C)[C@H]3CC[C@@]4(C)[C@H](C(=O)O)OC(=O)[C@H]5O[C@]54[C@]3(C)C(=O)C[C@@H]12	·	10%	5	-1.9%	·	-9	·
COc1ccccc1CN1C(=O)CN(C2CCCC2)C(=O)C1c1ccc(F)cc1 (stereo unspecified)	1%	-16%	-21	-2.5%	-0.4	-16	13%
CCc1ccc(N(CC(=O)NCc2ccc(OC)cc2)C(=O)CCC(=O)Nc2ccccn2)cc1	27%[15.4 µM]	-14%	29	-6.4%	-1.0	-10	4%
CC(NC(=O)c1ccccc1Cl)C(=O)N1CCN(Cc2ccc3c(c2)OCO3)CC1 (stereo unspecified)	15%	5%	26	1.9%	·	-20	·
O=C(CC1NCCNC1=O)Nc1ccc([N+](=O)[O-])cc1 (stereo unspecified)	9%[15.4 µM]	10%	-5	·	-1.1	-5	15%
COc1ccc(Cl)cc1NC(=O)CCCn1c(=O)c2cccn2c2cccnc21	1%	·	·	?	·	-2	·
CC(C)(C)NC(=O)C1CCC(C)(C(=O)O)C1(C)C (stereo unspecified)	-3%	9%	-9	-3.5%	-0.5	-3	23%
COc1cccc(C(=O)NC(=S)Nc2ccccc2N2CCCCC2)c1	3%	-13%	-4	0.7%	2.6	-6	12%
O=C(CSc1ccccc1C(=O)O)c1ccc([N+](=O)[O-])cc1	-25%	-16%	7	1.3%	-10	2	-94%
COc1ccc2c(c1)Cc1c-2cc(Br)c(N)c1Br	15%	·	·	0.7%	·	-10	·
CC1=C(C(=O)Nc2ccccc2)C(c2ccco2)C(C#N)=C(SCC(=O)OC(C)C)N1 (stereo unspecified)	?	-23%	4	-7.8%	7.4	-9	6%
C=C1C(=O)OCC2C(C(=O)O)=CC3C(C)C(C)=CC123 (stereo unspecified)	13%	·	·	0.3%	·	-1	·
Cc1sc2ncn(CC(=O)N3CCC(C(N)=O)CC3)c(=O)c2c1S(=O)(=O)N1CC(C)CC(C)C1 (stereo unspecified)	?	4%	9	·	2.4	-6	14%
CNC(=O)CN(c1cc(C)ccc1C)S(C)(=O)=O	19%	1%	10	1.6%	-2.8	-20	14%
Cc1ccc(-n2ccc(=O)c(C(=O)Nc3ccc(S(=O)(=O)N4CCOCC4)cc3)n2)cc1	1%	20%	-4	-2.1%	-2.9	-8	2%
NC(=O)c1sc2nc(-c3ccccc3)ccc2c1N	19%	5%	7	24%	-0.2	-2	13%
CC(=O)OC(C)(CCC(C)(OC(C)=O)C(C)=O)C(C)=O (stereo unspecified)	-2%	15%	-3	1.3%	-1.2	-5	2%
CNC(=S)N(Cc1cc2ccc(OC)cc2[nH]c1=O)CC1CCCO1 (stereo unspecified)	-11%[15.4 µM]	-1%	2	-3.3%	-6.8	-1	10%
COc1ccc2nc(SCc3cccnc3)c(C#N)cc2c1	24%	-4%	17	-5.8%	4.0	6	8%
Cc1ccc(N(CC(=O)NCC2CCCO2)C(=O)CCC(=O)Nc2ccccn2)cc1C (stereo unspecified)	19%	-11%	-11	0.8%	-0.7	-23	16%
Cc1ccc(S(=O)(=O)NCC(=O)OCCOc2cccc(Cl)c2)cc1	-9%	-14%	-2	-0.8%	·	1	·
Additional compounds:
SMILES	gsp agonist	gsp antag	TRPV1 potentiator	ClpP mod	Menin-MLL FL inh	D2 potentiator	Sfp PPTase inh
O=C(NCc1ccccc1)C12CN(Cc3ccccc3)CC1C(c1cccc([N+](=O)[O-])c1)=NO2 (stereo unspecified)	?	-8%	-5	1.5%	3.5	-31	1%
O=C(COC(=O)c1ccccc1[N+](=O)[O-])NNC(=O)c1cccs1	-56%[inhibitor]	14%	-1	0.5%	-3.7	-14	3%
CCOC(=O)c1c(NC(=O)c2noc3c2CCCC3)sc(C)c1C	·	·	-1	·	-0.6	·	32µM*
COc1ccc(C(=O)Nc2nnc(SCC(=O)NCc3ccco3)s2)cc1OC	-31%	5%	10	-17%	·	-22	9%
O=[N+]([O-])c1cc([N+](=O)[O-])c(Oc2c(F)cccc2F)cc1NN1CCCCC1	-31%[inhibitor]	1%	-22	-1.2%	1.2	-6	19%
OC1c2cc(Br)ccc2N=C2CCCN21 (stereo unspecified)	7%	5%	-20	-0.3%	-17	-18	5%
Cc1cc(C)c2cc(C=O)c(Cl)nc2c1	7%	16%	-2	4.2%	-3.3	5	3%
Cc1cc(C)c(C#N)c(SCCS(=O)(=O)Cc2ccccc2)n1	-31%[inhibitor]	-13%	-22	-2.8%	7.2	-3	-2%
O=C1CC(N2CCN(S(=O)(=O)c3ccccc3F)CC2)C(=O)N1c1ccc(F)cc1F (stereo unspecified)	2%	-1%	·	·	·	-4	·
O=C(CNC(=O)C12CC3CC(CC(C3)C1)C2)NC1=NCCS1	-9%	-3%	2	-0.3%	0.8	2	9%
O=C(CCNC(=O)c1ccc(Cl)cc1)NCC(c1ccco1)N1CCCCC1 (stereo unspecified)	-7%[15.4 µM]	10%	-1	·	·	-5	·
O=C(/C=C/c1ccc(F)cc1)NCc1cccs1	-49%[inhibitor]	9%	-10	-3.1%	3.0	-17	6%
Cn1cc([N+](=O)[O-])c(C(=O)N/N=C/c2ccc([N+](=O)[O-])cc2)n1	10%	4%	14	1.7%	-1.9	12	-2%
C=CCN1C(=O)c2ccc(C(=O)OCC(=O)N3CCN(c4ccccc4)CC3)cc2C1=O	-30%	6%	1	-4.0%	·	2	·
CC(C)(C)N=C1C([N+](=O)[O-])=CC=C2C1=NC1(CCCCC1)N2O	7%	-2%	-16	-3.8%	-12	11	?
CCCCCCN(C(=O)CCCCCN1C(=O)NC(c2ccc(-c3ccccc3)cc2)C(C(=O)OCc2ccccc2)=C1C)C(C(=O)NCCCC)c1ccc(O)c(C(=O)OC)c1 (stereo unspecified)	·	·	?	·	1.3&-4.7	·	-1%&21%
CCc1ccc(NS(=O)(=O)c2ccc(OC)c(C)c2)cc1	3%	-26%	15	-1.9%	1.4	-3	-5%
O=C(CCN1C(=O)[C@@H]2Cc3ccccc3CN2C1=O)N[C@H](C(=O)O)c1ccccc1	-6%	8%	-10	-3.4%	·	1	9%
Cc1ccc2c(c1)c(Sc1ccccc1)c(CC(=O)O)n2C	-12%	4%	6	-0.5%	-0.4	7	2%
Cn1nnnc1SCC(=O)N1CCN(Cc2ccccc2)CC1	24%	6%	6	-2.5%	6.1	-6	10%
COc1ccc(OC)c(CN2CCN(Cc3cccc4ccccc34)CC2)c1	?	-5%	-7	-4.0%	-6.3	-12	?
NS(=O)(=O)c1ccc(N=Cc2c(O)c3ccccc3oc2=O)cc1	1%[15.4 µM]	-15%	25	·	-1.1	-4	7%
CN1CCN(C(=O)c2ccccc2NC(=O)C(C)(C)C)CC1	-21%	12%	9	-1.5%	-2.9	-1	5%
O=C(CNC(=O)CNC(=O)c1ccc(Cl)cc1Cl)NCc1cccc(Cl)c1	7%[15.4 µM]	2%	18	·	-11	4	1%
COc1ccc(N(C(=O)c2csnn2)C(C(=O)NC2CCCC2)c2cccs2)cc1 (stereo unspecified)	-11%	1%	2	·	·	-1	8%
Going on with the list:
SMILES	gsp agonist	gsp antag	TRPV1 potentiator	ClpP mod	Menin-MLL FL inh	D2 potentiator	Sfp PPTase inh
Cc1cc2ncn(CC(O)COC3CCCCC3)c2cc1C (stereo unspecified)	-21%	3%	2	-0.1%	-1.1	1	11%
Cc1ccc(S(=O)(=O)Nc2c(C)nc3nc(C)[nH]n3c2=O)cc1	-19%	11%	18	·	3.9	-2	18%
CC(=O)N1CCN(Cc2nc3cc(NC(=O)COc4cccc(C)c4)ccc3n2C)CC1	2%	-1%	1	·	-1.0	-5	-23%
COc1ccc(C=CC(=O)c2ccc(OCc3ccccc3)c(OC)c2)cc1OC	6%	·	·	-14%	·	-6	·
CC(C)CCN1CCNC(=O)C1CC(=O)N(C)CCCN1CCOCC1 (stereo unspecified)	-44%[inhibitor]	5%	0	32µM*	-2.9	-10	21%
COc1ccccc1CNC(=O)C1CCN(S(=O)(=O)c2ccc3c(c2)CC(C)N3C(=O)C2CC2)CC1 (stereo unspecified)	1%	-34%	6	0.4%	·	-10	-8%
CC(C)(C)c1cc(CN2CCN(CCO)CC2)cc(C(C)(C)C)c1O	10%	3%	0	0.1%	-2.9	-19	?
C=CCNC(=O)CCNS(=O)(=O)c1ccc(Br)cc1	-8%	5%	-4	0.3%	0.1	-2	21%
COc1ccccc1CN(Cc1cccnc1)S(=O)(=O)c1ccc(-n2cnnn2)c(OC)c1	21%	-7%	1	·	-0.8	-3	3%
CCOC(=O)CCn1c(CC(=O)OCC)nc2ccccc21	7%	-4%	-18	-0.3%	-2.6	-5	-4%
CCCN(CC(=O)Nc1cc(Cl)ccc1Cl)C(=O)/C=C/c1ccco1	2%	-13%	-18	3.1%	8.5	-24	?
Cc1ccc(NC(C#N)c2ccccc2OCc2ccccc2)cc1 (stereo unspecified)	18%	17%	2	-9.6%	2.8	-3	-39%

Some of the entries above in another layout:
Values run as follows: gsp agonist | gsp antag | TRPV1 potentiator | ClpP mod | Menin-MLL FL inh | D2 potentiator | Sfp PPTase inh
> COc1ccc2c(c1)Cc1c-2cc(Br)c(N)c1Br
  15% | · | · | 0.7% | · | -10 | ·
> Cc1ccc(NC(C#N)c2ccccc2OCc2ccccc2)cc1 (stereo unspecified)
  18% | 17% | 2 | -9.6% | 2.8 | -3 | -39%
> Cc1cc2ncn(CC(O)COC3CCCCC3)c2cc1C (stereo unspecified)
  -21% | 3% | 2 | -0.1% | -1.1 | 1 | 11%

Screens: PubChem BioAssay, National Center for Advancing Translational Sciences (NCATS)
